PrP 5UTR inh = suppresses PrP 5' UTR mRNA reporter expression. 0.35% of 340,000 active. inhibition, % (concentration not given with the values). cell-based PrP 5' UTR mRNA reporter, plate reader. AID 488862;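 active means every replicate at 50% or more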;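 further: 0 = median of the neutral control wells; tested in H4 reporter cells; numbers are from one replicate; inactives centre near -14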
Autofluor counter = compound fluorescence in toxin protease inhibitor counterscreen; compound autofluorescence counterscreen, microsphere flow cytometry; stronger effect = higher value; fluorescence intensity (test concentration not listed); 3.1% of 360,000 active;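 active means at least 3 SD above the mean of all compounds, about 16000 in these data; inconclusive means too few beads counted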;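 further: 100 nL of 1 mM stock went into each well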
Mtb hypoxia rep = reduces hypoxia-regulated biosensor signal in M. tuberculosis. 0.1% of 300,000 active. M. tuberculosis hypoxia-regulated fluorescent reporter, fluorescence. fluorescence inhibition, % (concentration not given with the values);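 active means 35 to 45% if threefold the growth effect, above 45% if 1.5-fold the growth effect; inactive means the rest, general growth blockers included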;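 further: wells of about 50 µL received 100 nL stock; 0% = vehicle wells and 100% = reference inhibitor wells; whole bacteria with a GFP reporter of the hypoxia response; strong numbers were not always called active; many hits fall short of the cut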
BJeLR viability = kills HRASV12-expressing BJeLR cells. 0.17% of 300,000 active. inhibition, % (concentration not given with the values). AID 1554. BJeLR (HRASV12) viability, CellTiter-Glo ATP luminescence, 48 h; reference of the scale not given here;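 active means replicate mean above 50%; inconclusive means above 50% but judged a plate artefact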;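 further: 50 nL library stock added to about 25 µL; numbers are from one replicate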
Sa RN4220 lethal = S. aureus RN4220 growth inhibition. OD600, 16 h. inhibition, % (test concentration not listed). 0.33% of 330,000 active;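 active means z-score of -3 or lower and OD600 up to 0.18 on both plates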;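 further: plate controls were untreated cells for no effect and reference antibiotic for full effect; stock transfer was 100 nL into about 80 µL; one replicate is shown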
ugtP null kill = kills S. aureus RN4220 lacking UgtP; growth inhibition, % (test concentration not listed); S. aureus RN4220 ugtP deletion, OD600 growth, 16 h; some inactives read as strong as hits; 0.54% of 330,000 active;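 active means z-score under -3 and OD600 up to 0.15 on both plates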;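 further: plate controls were untreated wells for no effect and antibiotic for full effect; wells of about 80 µL received 100 nL stock; the first replicate is given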
Mtb hypoxia rep growth = further read-out of Mtb hypoxia rep, marked with its call; growth inhibition, %; measured here: M. tuberculosis growth (absorbance);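 0% = vehicle and 100% = reference antibiotic; read after six days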
Numbers without * were called inactive.

`CCCN(CCC)CCCNc1ccc2nnc(-c3ccc(F)cc3)n2n1` gave PrP 5UTR inh 9, Autofluor counter 4889, Mtb hypoxia rep 8, BJeLR viability -5, Sa RN4220 lethal -1.3, ugtP null kill 3 and Mtb hypoxia rep growth 5.
`COC1=CCC2([N+](=O)[O-])CN(C)CC1([N+](=O)[O-])C2` (stereo not drawn) gave PrP 5UTR inh -7, Autofluor counter 2240, Mtb hypoxia rep -5, BJeLR viability 1, Sa RN4220 lethal 3.7, ugtP null kill 8 and Mtb hypoxia rep growth -1.
`Cc1ccc(NC(=O)CSc2nnc(C3CCCCC3)n2N)cc1F` gave PrP 5UTR inh -22, Autofluor counter 9056, Mtb hypoxia rep 4, BJeLR viability 3, Sa RN4220 lethal 24, ugtP null kill -1 and Mtb hypoxia rep growth 3.
Oc1ccc(/C=N\Nc2nncc(-c3ccccc3)n2)cc1 was read as PrP 5UTR inh -18, Autofluor counter 4349 and BJeLR viability -4.
`O=C(Nc1nnc(-c2ccccc2)s1)c1ccccc1F` gave PrP 5UTR inh -47, Autofluor counter 4777, Mtb hypoxia rep 5, BJeLR viability 11, Sa RN4220 lethal -2.4, ugtP null kill 2 and Mtb hypoxia rep growth 2.
For CCOc1ccc2nc(NC(=O)Cc3cccs3)sc2c1 the results were PrP 5UTR inh -32, Autofluor counter 3558, BJeLR viability -7, Sa RN4220 lethal 0.0 and ugtP null kill -6.
COC(=O)CN1C(=O)Nc2ccc(Cl)cc2C1c1ccccc1 (stereo not drawn) was read as PrP 5UTR inh -8, Autofluor counter 3150, Mtb hypoxia rep 7, BJeLR viability 2, Sa RN4220 lethal 2.5, ugtP null kill 2 and Mtb hypoxia rep growth 0.
Screening O=C(NCC1CCCN1S(=O)(=O)c1cccs1)c1c(F)cccc1F (stereo not drawn) returned PrP 5UTR inh -20, Autofluor counter 8845, Mtb hypoxia rep 1, BJeLR viability -1, Sa RN4220 lethal 2.1, ugtP null kill 0 and Mtb hypoxia rep growth 1.
CCOc1ccc(CCNC(=O)c2cc(C)nn2-c2ccccc2)cc1 was read as PrP 5UTR inh -7, Autofluor counter 5593, Mtb hypoxia rep 5, BJeLR viability -4, Sa RN4220 lethal -1.3, ugtP null kill 1 and Mtb hypoxia rep growth 20.
For CCNc1nc(NC(C)C)nc(N(C#N)Cc2ccccc2)n1 the results were PrP 5UTR inh 1, Autofluor counter 2781, BJeLR viability 10, Sa RN4220 lethal -3.1 and ugtP null kill -3.
For CCOC(=O)c1sc(Nc2cccc(Cl)c2)nc1C the results were PrP 5UTR inh -42, Mtb hypoxia rep 6, BJeLR viability -2, Sa RN4220 lethal -1.8, ugtP null kill 62 and Mtb hypoxia rep growth 10.
For COc1ccc(CN2CCc3cc(OC)c(OC)cc3C2)cc1O the results were PrP 5UTR inh -31, Autofluor counter 4799, BJeLR viability 5, Sa RN4220 lethal 2.6 and ugtP null kill 5.
Cc1c(C(c2ccc(C(=O)O)cc2)c2c(C)n(C)n(-c3ccccc3)c2=O)c(=O)n(-c2ccccc2)n1C was read as Autofluor counter 3542, Mtb hypoxia rep 7, BJeLR viability 1, Sa RN4220 lethal 3.6, ugtP null kill 9 and Mtb hypoxia rep growth 13.
Screening C/C(=N\OC(=O)c1cccc(Cl)c1)c1sc(C)nc1C returned PrP 5UTR inh -8, Autofluor counter 2718 and BJeLR viability 1.
Screening Cc1cc(OCC(=O)NC(Cc2ccc(Cl)cc2)C(=O)O)c2c(C)cc(=O)oc2c1 (stereo not drawn) returned PrP 5UTR inh -22, Autofluor counter 5600, BJeLR viability -4, Sa RN4220 lethal -0.4 and ugtP null kill -6.
For C(=Nn1c2ccccc2c2ccccc21)c1ccccc1 the results were Mtb hypoxia rep -6, Sa RN4220 lethal 2.4, ugtP null kill 12 and Mtb hypoxia rep growth -7.
`Cc1ccc(C)c(S(=O)(=O)N2CCN(CC(=O)Nc3ccc4c(c3)OCCO4)CC2)c1` gave PrP 5UTR inh -6, Autofluor counter 24103*, Mtb hypoxia rep 12, BJeLR viability 2, Sa RN4220 lethal 1.9, ugtP null kill 1 and Mtb hypoxia rep growth 10.
`Cc1c(CN2CCC(CO)(CC3CCCCO3)CC2)cnn1C` (stereo not drawn) gave PrP 5UTR inh -9, Autofluor counter 4764, Mtb hypoxia rep 10, BJeLR viability 0, Sa RN4220 lethal -2.5, ugtP null kill 3 and Mtb hypoxia rep growth 6.
NC(=O)CC(NC(=O)c1ccc(Br)cc1)c1ccc(NCc2ccc(F)cc2)c([N+](=O)[O-])c1 (stereo not drawn) was read as PrP 5UTR inh -12, Autofluor counter 3588 and BJeLR viability 5.
CC(=NNC(=O)c1ccc(CN2CCOCC2)cc1)c1ccc([N+](=O)[O-])cc1 was read as Mtb hypoxia rep -13, Sa RN4220 lethal 7.4, ugtP null kill 3 and Mtb hypoxia rep growth 4.
For CCOC(=O)CNC(=O)C(CO)NC(=O)OCc1ccccc1 (stereo not drawn) the results were PrP 5UTR inh -15, Autofluor counter 3125, Mtb hypoxia rep 8, BJeLR viability 10, Sa RN4220 lethal 2.2, ugtP null kill 5 and Mtb hypoxia rep growth 0.
`O=C(CNC(=O)c1ccco1)N=Nc1c(O)n(CCc2ccccc2)c2ccccc12` gave PrP 5UTR inh 37, Autofluor counter 4383, Mtb hypoxia rep 5, BJeLR viability 43, Sa RN4220 lethal 5.3, ugtP null kill 4 and Mtb hypoxia rep growth 6.
c1ccc2c(CN3CCCCC3)c[nH]c2c1 was read as PrP 5UTR inh -14, Autofluor counter 3538, Mtb hypoxia rep -9, BJeLR viability -6, Sa RN4220 lethal 4.6, ugtP null kill 8 and Mtb hypoxia rep growth 1.
For COc1ccc(N(C(=O)c2ccco2)S(=O)(=O)c2cc(Cl)c(Cl)cc2Cl)cc1 the results were PrP 5UTR inh -19, Autofluor counter 23813*, Mtb hypoxia rep -1, BJeLR viability -9, Sa RN4220 lethal 8.6, ugtP null kill -18 and Mtb hypoxia rep growth 3.
Screening Cc1ccc2c(C(=O)CSc3ccccc3)c(C)[nH]c2c1 returned PrP 5UTR inh -37, Autofluor counter 2471, Mtb hypoxia rep 8, BJeLR viability 1, Sa RN4220 lethal 5.1, ugtP null kill 0 and Mtb hypoxia rep growth -3.
Screening O=C(CSC1=NS(=O)(=O)c2ccccc2N1)Nc1cccc(F)c1 returned PrP 5UTR inh -10, Autofluor counter 6107, Mtb hypoxia rep 14, BJeLR viability -2, Sa RN4220 lethal 3.9, ugtP null kill 5 and Mtb hypoxia rep growth 7.
`COc1ccc(S(=O)Cc2ccc(C(=O)N3CCN(C(=O)c4ccco4)CC3)o2)cc1` (stereo not drawn) gave PrP 5UTR inh -18, Autofluor counter 5425, Mtb hypoxia rep 8, BJeLR viability 1, Sa RN4220 lethal 1.8, ugtP null kill 5 and Mtb hypoxia rep growth 15.
Screening Cc1nc2ccccc2c(=O)n1NC(=O)c1ccccc1[N+](=O)[O-] returned PrP 5UTR inh -11, Autofluor counter 2496, Mtb hypoxia rep 2, BJeLR viability 1, Sa RN4220 lethal 39, ugtP null kill 18 and Mtb hypoxia rep growth 1.
`CN(Cc1ccccc1)CC(O)COc1ccc(CNCc2nccn2C)cc1` (stereo not drawn) gave PrP 5UTR inh -23, Autofluor counter 4854, Mtb hypoxia rep 3, BJeLR viability 0, Sa RN4220 lethal 2.5, ugtP null kill -1 and Mtb hypoxia rep growth -4.
CCC(C)(C)C1CCC2(CC1)NC(=O)N(CC(=O)NCCc1ccc(OC)c(OC)c1)C2=O (stereo not drawn) was read as PrP 5UTR inh -20, Autofluor counter 3771, Mtb hypoxia rep 3, Sa RN4220 lethal 7.1, ugtP null kill 8 and Mtb hypoxia rep growth -4.
CN1CCC(N(C)S(=O)(=O)c2ccc(C(C)(C)C)cc2)CC1 was read as PrP 5UTR inh -3, Autofluor counter 3164, Mtb hypoxia rep 12, BJeLR viability 5, Sa RN4220 lethal 0.1, ugtP null kill -3 and Mtb hypoxia rep growth 8.
Screening O=S(=O)(Nc1cccnc1)c1cccc(Cl)c1 returned PrP 5UTR inh -26, Autofluor counter 7544, Mtb hypoxia rep 5, BJeLR viability -8, Sa RN4220 lethal 2.5, ugtP null kill 5 and Mtb hypoxia rep growth 3.
`O=C(COC(=O)c1ccc2c(c1)OCCO2)Nc1ccc(F)cc1` gave PrP 5UTR inh -8, Autofluor counter 4248, Mtb hypoxia rep -14, Sa RN4220 lethal 3.3, ugtP null kill 2 and Mtb hypoxia rep growth -6.
For O=C(Nc1cccc(S(=O)(=O)N2CCOCC2)c1)c1cn(-c2ccccc2)nc1-c1ccccc1 the results were PrP 5UTR inh -12, Autofluor counter 2162, Mtb hypoxia rep 5, BJeLR viability 1, Sa RN4220 lethal -1.6, ugtP null kill 3 and Mtb hypoxia rep growth -1.
Cc1ccc(C(=O)NC2CC3CCC(C2)N3Cc2ccco2)cc1 (stereo not drawn) was read as PrP 5UTR inh -10, Autofluor counter 8823, Mtb hypoxia rep 10, BJeLR viability 2, Sa RN4220 lethal 2.1, ugtP null kill 8 and Mtb hypoxia rep growth 7.
`COc1ccc(CN2CC(C(=O)NCCCN3CCOCC3)CC2=O)cc1` (stereo not drawn) gave PrP 5UTR inh -9, Autofluor counter inconclusive, Mtb hypoxia rep -7, BJeLR viability 3, Sa RN4220 lethal -7.7, ugtP null kill -6 and Mtb hypoxia rep growth 8.
For CN(CC(=O)Nc1ccccc1Br)C(=O)CNC(=O)c1ccco1 the results were PrP 5UTR inh -14, Autofluor counter 5225, Mtb hypoxia rep 7, BJeLR viability -1, Sa RN4220 lethal 3.9, ugtP null kill 4 and Mtb hypoxia rep growth 0.
For CC(=O)c1cccc(CN2CCN(CC(C)C)C(CCO)C2)c1 (stereo not drawn) the results were PrP 5UTR inh -7, Autofluor counter 2179, Mtb hypoxia rep 1, BJeLR viability 4, Sa RN4220 lethal -1.1, ugtP null kill 4 and Mtb hypoxia rep growth -7.
For COc1ccc(C(=O)NC(C)(C)C)cc1S(=O)(=O)N1CCCC1 the results were PrP 5UTR inh -28, Autofluor counter inconclusive, Mtb hypoxia rep 18, BJeLR viability 2, Sa RN4220 lethal 3.0, ugtP null kill 7 and Mtb hypoxia rep growth 5.
